Cruzain Triton – qHTS Assay for Promiscuous and Specific Inhibitors of Cruzain (with detergent); Cruzipain (Trypanosoma cruzi), P25779; purified cruzain, Z-FR-AMC fluorescence, 0.01% Triton; Potency, µM, for inactives: max response, negative = inhibition, hits mostly inhibitors; 0.43% of 200,000 active; AID 1478, 2009;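 further: plate controls were neutral wells for no effect and buffer without enzyme for full effect; nearly all actives have a fitted effect of over 40% in size; top concentration of the series not given in the record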
Target sequence (P25779 123-467 limits assumed): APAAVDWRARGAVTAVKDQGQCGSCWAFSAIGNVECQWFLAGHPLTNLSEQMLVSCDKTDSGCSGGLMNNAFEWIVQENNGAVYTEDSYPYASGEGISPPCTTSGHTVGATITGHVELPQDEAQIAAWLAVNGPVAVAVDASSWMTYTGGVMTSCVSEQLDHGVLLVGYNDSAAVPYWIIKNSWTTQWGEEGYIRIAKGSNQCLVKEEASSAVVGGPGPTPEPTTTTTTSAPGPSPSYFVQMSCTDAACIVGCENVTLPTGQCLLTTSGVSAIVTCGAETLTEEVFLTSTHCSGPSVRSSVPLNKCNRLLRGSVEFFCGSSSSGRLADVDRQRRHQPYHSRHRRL
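Sodium acetate buffer (100 mM, pH 5.5) containing 5 mM DTT and 0.01% Triton X-100 hosted 1.5 nM cruzain and test compound for 15 min at room temperature. Cleavage of 2 uM Z-FR-AMC was then tracked by fluorescence.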
LASV entry inh – qHTS for Inhibitors of binding or entry into cells for Lassa Virus | Lassa virus pseudotype entry inhibition, cell reporter; control for the full effect not named in the record | 1.2% of 300,000 active | Potency, µM (highest dose often 37.9 µM), inactives show top-dose activity change, negative = inhibition, most hits filed as inhibitors | AID 540256, 2011; active means well fitted inhibition curve with a large enough effect; inconclusive means small, poorly fitted or top-dose-only effect, or effect the other way; inactive means flat fitted curve, though single readings scatter; tested in HEK293 cells; further: on the % scale 0 is the no-effect control and ±100 the full control effect; nearly all actives have a fitted effect of over 50% in size; luciferase read-out
SARS PLpro yeast – qHTS of Yeast-based Assay for SARS-CoV PLP; S. cerevisiae expressing SARS-CoV PLpro, growth rescue; control for the full effect not named in the record; Potency, µM (titrated, usually from 32.9 µM), for the others: at the top dose activity, positive = growth rescue; 0.19% of 330,000 active; AID 485353, 2010; active means well fitted rising curve with a large enough effect; inconclusive means small, poorly fitted or top-dose-only effect; inactive means no such curve, though single readings can be large or run the other way; further: 0% is about no effect; nearly all actives have a fitted effect of over 55% in size; growth read by luminescence after 48 h
NS1 inh – qHTS Assay for Inhibitors of Influenza NS1 Protein Function | Potency, µM (titrated, usually from 46.1 µM), for the others: at the highest dose activity, positive = more growth | S. cerevisiae slowed by influenza A NS1, growth recovery by OD600 | 0.4% of 270,000 active; active means well fitted rising curve with a large enough effect; inconclusive means small, poorly fitted or top-dose-only effect; inactive means no such curve, though single readings can be large or run the other way; further: nearly all actives have a fitted effect of over 50% in size
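In this qHTS, NS1 from influenza A is expressed in budding yeast, where it slows growth. Cells are switched from glucose to 2% galactose medium (pH 6.0, -URA), treated with compound, and growth recovery is read at OD600.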
RE007 growth inh – qHTS Assay for Inhibitors of the HIV-1 protein Vpr; S. pombe RE007 Vpr strain, BacTiter-Glo ATP luminescence, 24 h; control for the full effect not named in the record; Potency, µM (highest dose often 92.2 µM), inactives show at the highest dose activity change, negative = less growth; 0.21% of 360,000 active; active = well fitted falling curve with a large enough effect; inconclusive = small, poorly fitted or top-dose-only effect; inactive = no such curve, though single readings can be large or run the other way;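 further: on the % scale 0 is the no-effect control and ±100 the full control effect; nearly all actives have a fitted effect of over 50% in size; the assay follows cell death caused by Vpr and the record does not say whether a fall means rescue or toxicity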
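Fission yeast RE007 carrying one integrated HIV-1 vpr copy, seeded at OD 0.01 in PMG+AL medium with 23 nL pinned compound. Grown 24 h at 30 degrees; viability read by BacTiter-Glo luminescence after 5 min.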
StopGo reporter – High Throughput Screening for Foot and Mouth Disease Virus Antivirals | 1.2% of 410,000 active | AID 1159524, 2015 | human cells with a luciferase reporter of 2A StopGo recoding; control for the full effect not named in the record | Potency, µM (doses to about 57.9 µM), for inactives: at the highest dose signal change, negative = less light; active = well fitted falling curve with a large enough effect; inconclusive = small, poorly fitted or top-dose-only effect; inactive = no such curve, though single readings can be large or run the other way; tested in HEK293T cells; further: on the % scale 0 is the no-effect control and ±100 the full control effect; nearly all actives have a fitted effect of over 45% in size; luciferase light after 4 h
Cruzain inh noDet – qHTS Assay for Promiscuous and Specific Inhibitors of Cruzain (without detergent) | Cruzipain (Trypanosoma cruzi), P25779 | purified cruzain, Z-FR-AMC fluorescence, no detergent | Potency, µM, for inactives: max response, negative = inhibition, hits mostly inhibitors | 2.3% of 200,000 active | AID 1476, 2009;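 further: plate controls were enzyme without inhibitor for no effect and buffer without enzyme for full effect; nearly all actives have a fitted effect of over 40% in size; top concentration of the series not given in the record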
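Purified cruzain at 1.5 nM, pre-incubated 15 min with compound at room temperature in 100 mM sodium acetate pH 5.5, 5 mM DTT, 0.00005% Triton X-100. Reaction started with 2 uM Z-FR-AMC; AMC fluorescence increase over 60 s gives rate.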
MARV entry inh – qHTS for inhibitors of binding or entry into cells for Marburg Virus | Marburg virus pseudotyped entry inhibition, cell reporter; control for the full effect not named in the record; about a third of the inactives were read at about 46 µM | Potency, µM (doses to about 37.8 µM), for inactives: at the highest dose activity change, negative = inhibition, usual class: inhibitors | 1.8% of 300,000 active | AID 540276, 2011; active = well fitted inhibition curve with a large enough effect; inconclusive = small, poorly fitted or top-dose-only effect, or effect the other way; inactive = flat fitted curve, though single readings scatter; tested in HEK293 cells; about a fifth of its hits are not listed in these tables; further: on the % scale 0 is the no-effect control and ±100 the full control effect; luciferase read-out
The depositor's hits bear a star; ? = inconclusive; / = no result given; & = joins results of further samples; [ ] = remark or other dose. Unless noted, the call rests on the fitted dose curve; in most records, active means well fitted curve in the direction sought with a large enough effect; inconclusive means small, poorly fitted or top-dose-only effect, or another doubt; inactive means no such curve, though single readings can be large; an effect the other way counts as inactive or inconclusive. Potency means the concentration at half of the fitted maximal effect. Not a hit list; overall some 4.5% were active at least once.

SMILES	Cruzain Triton	LASV entry inh	SARS PLpro yeast	NS1 inh	RE007 growth inh	StopGo reporter	Cruzain inh noDet	MARV entry inh
Cc1ccc(N2CCn3c2nc2c3c(=O)n(CCCc3ccccc3)c(=O)n2C)cc1C	-2.5%	2%[46.1 µM]	/	/	/	-10%	0%	/
COc1ccc(C)cc1NC(=O)CSc1nc2scc(C)c2c(=O)[nH]1	/	5%[46.1 µM]	3%	-2%	13%	-22%	/	-18%[46.1 µM]
COc1cccc(-c2nnc(-c3cc4cc(Cl)ccc4oc3=O)o2)c1	0.1%	7%[46.1 µM]	/	/	/	-5%	14%	/
O=C(O)c1ccc(C=NNC(=O)c2cccc3ccccc23)cc1	/	-19%	/	/	-5%	-12%	/	4%
O=C(Cc1ccccc1)NNC(=O)Nc1cccc(Cl)c1	2.1%	-18%	1%	7%	1%	39%[activator]	-6%	-10%
COc1ccc(NC(=O)O/N=C/c2c(C)nn(C(C)(C)C)c2C)cc1	/	/	-1%	-6%	7%	?	/	/
Cc1coc(C)c1C(=O)CC1(O)C(=O)Nc2cc(Cl)cc(Cl)c21 (configuration not stated)	1.4%	9%	-2%	-2%	-4%	-17%	-3%	-2%
CCN(C(=O)CCS(=O)(=O)c1cccc2nonc12)c1ccc(C)c(C)c1	/	-7%	9%	3%	18%	13%	/	?
N#CCSc1nccc(/C=C/c2ccccc2)n1	/	24%	-2%	/	-8%	57%[activator]	/	-24%[46.1 µM]
Cc1nc2c3c(sc2c(=O)[nH]1)NC(=O)CC3c1ccccc1Cl (configuration not stated)	/	/	1%	1%	3%	-3%	/	/
Cc1noc(C)c1C(=O)N1CCN(CCc2ccccc2)CC1	6.1%	-12%	4%	-7%	-6%	-18%	2%	5%
Cc1cccc(CN2CCC(C(=O)Nc3ccc(-n4nc(C)cc4C)cc3)CC2)n1	/	-7%	3%	-9%	-5%	-16%	/	10%
COC(=O)Nc1ncc(CN2CCC(c3ccccc3)CC2)s1	0.9%	-19%	2%	2%	-18%	-27%	8%	-14%[46.1 µM]
Cc1cc2oc(C(=O)Nc3cccc(-c4nc5ccccc5o4)c3)c(C)c2cc1Cl	0.2%	?	/	/	/	-10%	-2%	-1%[46.1 µM]
O=C1CC(c2ccccc2)CC(O)=C1C=NCCN1CCN(C(=O)Nc2ccccc2)CC1 (configuration not stated)	0.8%	0%	-11%	-32%	1%	-9%	-4%	-1%
CCN(CC)S(=O)(=O)c1ccc(S(=O)(=O)N(CC(=O)Nc2ccccc2)CC2CCCO2)cc1 (configuration not stated)	/	?	/	/	-1%	?	/	-14%
CN(C)C(=O)Cn1cnc2c(cnn2-c2ccccc2Cl)c1=O	3.2%	-3%	3%	-7%	2%	-5%	-1%	5%
CC(=O)NCCOc1nc(N(C)C)nc(N2CCCCC2)n1	/	/	1%	1%	-8%	-1%	/	/
O=C(CSc1nccn1-c1cccc(Cl)c1)Nc1ccc2c(c1)OCCO2	-4.3%	/	-13%	-81%	21%	-10%	-6%	-1%
CCC(C)(C(=O)NC1CCCC1)N(Cc1cccs1)C(=O)c1ccc2c(c1)OCO2 (configuration not stated)	2.7%	-1%	16%	-2%	7%	?	0%	?
COc1ccc(CCNC(=O)COc2ccc(S(=O)(=O)N3CCCC3)cc2)cc1	/	?	0%	-8%	8%	-2%	/	?
COc1ccc(S(=O)(=O)N2CCN=C2SCc2cccnc2)cc1	/	-6%	1%	/	-4%	-27%	/	-4%[46.1 µM]
CCc1cccc(NC(=O)CCc2nc3cccnc3n2Cc2ccc(OC)cc2)c1	3.4%	?	/	/	/	0%	?	6%[46.1 µM]
N#Cc1c(N)sc(=S)c2c1CCCCC2	-19%	-30%	-8%	?	-3%	0%	-15%	-8%&-8%
CC(C)(C)C(=O)Nc1sc2c(c1C#N)CCN(Cc1ccccc1)C2	/	/	-3%	-19%	-3%	0%	/	/
CCOc1cc(C(=O)Nc2ccccc2N2CCOCC2)ccc1OCC(=O)N1CCCCC1	/	-8%[46.1 µM]	2%	-3%	8%	8%	/	?
Nc1nc(C23CC4CCC(CC(C4)C2)C3)cs1	-1.9%	12%	1%	-18%	5%	-27%	-5%	?
COc1ccc(OC)c(S(=O)(=O)N(C)CC(=O)Nc2ccc3c(c2)OCCO3)c1	1.6%	7%	/	-15%	-4%	-17%	-6%	-10%
O=C(NCCc1ccccc1)C1CCN(C(=O)c2sccc2-n2cccc2)CC1	-11%	/	5%	0%	-4%	-7%	-2%	2%
COc1cc(CCC(=O)NCc2ccc(S(N)(=O)=O)cc2)cc(OC)c1OC	/	-1%[46.1 µM]	0%	3%	5%	-6%	/	-10%[46.1 µM]
O=C(Nc1ccccc1F)NC1CCN(Cc2nnnn2Cc2ccc(F)cc2)CC1	-0.6%	-2%	-9%	-23%	-1%	-9%	1%	?
CC(C)(C)c1cc([N+](=O)[O-])cc(C(C)(C)C)c1O	/	16µM*	-18%	/	-6%	?	/	6.5µM*
COc1ccc(C)cc1NC(=O)NCc1ccc(F)cc1	/	/	-3%	-3%	25%	-1%	/	/
CCc1ccccc1NC(=O)Cn1nnc(C(=O)OC)c1C(=O)OC	-0.7%	-4%[46.1 µM]	/	/	/	-8%	0%	-9%[46.1 µM]
CCOC(=O)c1cc2[nH]c3ccccc3c2[n+](-c2ccc([N+](=O)[O-])cc2)c1C	-6.8%	-12%	-27%	18%	-19%	-25%	-8%	?
COCCNc1nnc(SCC(=O)NC(=O)c2ccccc2)s1	/	4%	2%	/	-14%	7%	/	-10%[46.1 µM]
Cc1ccsc1/C=N\NC(=O)c1ccc2c(c1)OCO2	1.4%	10%	1%	-15%	17%	-2%	7%	-26%
COC(=O)c1cccc(NC(=O)c2cccc(OC)c2)c1	3.8%	?	/	-55%	-25%	35%[activator]	5%	-12%[46.1 µM]
Cc1nn(Cc2c(Cl)cccc2Cl)c(C)c1NC(=O)c1cc(C(C)C)on1	-1.8%	/	18%	-12%	4%	-9%	2%	/
COc1ccccc1CCC(=O)OCC(=O)N1CCN(S(=O)(=O)c2ccc(C)cc2C)CC1	/	-15%	4%	/	-3%	-23%	/	-16%[46.1 µM]
CCOc1ccccc1NC(=O)c1nc(S(=O)(=O)Cc2ccccc2)ncc1Cl	/	/	-1%	-7%	3%	32µM*	/	/
CCc1ccc(NC(=O)CSc2nc3ccccc3c(=O)n2CCC(=O)NC2CCCCC2)cc1	1.5%	3%[46.1 µM]	/	/	/	-18%	-6%	/
C/C(=N\NC(=O)c1sccc1C)c1ccncc1	/	-1%[46.1 µM]	-2%	-13%	-8%	9%	/	17%[46.1 µM]
NC(=O)C1CCN(C(=O)C2CCC(=O)N(C3CCCCCC3)C2)CC1 (configuration not stated)	/	-12%	-7%	-2%	1%	-11%	/	21%
CC(=O)c1ccc(S(=O)(=O)NCc2ccc(C(=O)NCC(c3ccccc3)N(C)C)cc2)cc1 (configuration not stated)	/	10%	-4%	7%	-20%	9%	/	?
O=C1C[C@@H](c2ccc(O)cc2)Oc2cc(O)cc(O)c21	-0.3%&-6.4%	0%	-1%	-5%	8%	26%	5%&-12%	23%&15%
O=C1C(=O)N(c2cccc(Cl)c2)C(c2ccccc2[N+](=O)[O-])/C1=C(\O)c1ccccc1 (configuration not stated)	-11%	-18%	-12%	-12%	-8%	67%[activator]	-2%	0%
CN(C)S(=O)(=O)n1cc(/C=C(\NC(=O)c2ccccc2Cl)C(=O)NCCCN2CCOCC2)c2ccccc21	/	/	3%	7%	4%	-15%	/	/
Cc1ccc(NC(=O)Cn2c(=O)n(Cc3nc(-c4ccccc4)no3)c(=O)c3cc4c(cc32)OCO4)cc1F	-3.1%	6%[46.1 µM]	/	/	/	-6%	13µM*	/
CC(C)C(Cl)=NOC(=O)Nc1ccc(S(N)(=O)=O)cc1	/	-9%[46.1 µM]	/	/	16µM*	?	/	?
N#Cc1ccc(C(=O)Nc2nc3ccccc3[nH]2)cc1	/	?	-1%	4%	4%	-4%	/	10µM*
CCOc1ccc(S(=O)(=O)NCCC(=O)OCC(=O)Nc2cc(C)on2)cc1	/	/	-1%	-9%	-13%	-7%	/	/
COc1ccc(NC(=O)CNC(=O)Cc2ccccc2)cc1OC	/	15%[46.1 µM]	2%	12%	5%	21%	/	15%[46.1 µM]
CCCNS(=O)(=O)c1ccc(OCC(=O)N2CCOCC2)cc1	0.3%	0%	2%	2%	-12%	0%	-11%	2%
CN(CC(=O)Nc1ccc(Cl)cc1)C(=O)c1cccc(S(=O)(=O)N2CCN(Cc3ccccc3)CC2)c1	/	-18%	-2%	/	2%	22µM*	/	?
O=C(NC1CCCCC1)c1nc2c(nnn2Cc2ccccc2Cl)c(=O)[nH]1	-5.5%	15%	-4%	-9%	9%	1%	-19%	?
Cc1oc(-c2ccc(Cl)cc2)nc1CN1CCC(C(=O)NCCCN2CCCC(C)C2)CC1 (configuration not stated)	/	/	23%	2%	-6%	-22%	/	/
Cn1nc(CC(=O)Nc2ccc(N3CCN(C(=O)OC(C)(C)C)CC3)cc2)c2ccccc2c1=O	-5.2%	0%	3%	-18%	1%	?	18%	21%
O=C(Cc1cccc2ccccc12)NN1C(=O)CSC1=S	/	-1%	1%	5%	1%	0%	/	?
COc1ccc(NCc2nnc(SCC(=O)NNC(=O)c3ccc(C)cc3)n2C)cc1	/	23%	-3%	6%	5%	-5%	/	14%[46.1 µM]
CSc1nc(C)cc(Oc2ccc(=O)[nH]n2)n1	/	-1%	0%	/	3%	-8%	/	4%[46.1 µM]
O=C(NCc1nc(-c2ccccc2)cs1)c1ccccc1	/	2%	-2%	-34%	5%	11%	/	?

Assay outcomes: PubChem, National Center for Advancing Translational Sciences (NCATS)
